NPYLR7 agonist: mosquito NPYLR7 agonism. HEK293T NPYLR7/Galpha15, GCaMP6s calcium fluorescence. activation, % at 10 µM. 270,000 compounds, 0.15% hits; in the data active = activation above about 40%;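 also: 0% = vehicle and 100% = reference agonist at the receptor; some compounds past the cut are filed as inactive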
NPYLR7 agonist max-min: further read-out of NPYLR7 agonist, marked with its call; activation, %; measured here: Max-Min RFU normalised activation; some inactives read as strong as hits;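 span of the calcium signal over five minutes; 0% = vehicle and 100% = native peptide agonist; compound fluorescence can raise it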
Active calls of the source: *; & = joins results of further samples. Some of the compounds tested, so the mix of outcomes need not match the whole.

Screening Cc1cc(C)c(CN2CCCC(N3CCCC3=O)C2)c(-n2cccn2)c1 (configuration not stated) returned NPYLR7 agonist -3 and NPYLR7 agonist max-min -6.
Screening COc1cc(C2CCCCC2C)cc(OC)c1OC (configuration not stated) returned NPYLR7 agonist 12 and NPYLR7 agonist max-min 10.
Screening Cc1oc2c(c1C(=O)N1CCN(CCO)CC1)C(=O)c1ccccc1C2=O returned NPYLR7 agonist 6 and NPYLR7 agonist max-min 6.
CCN(CC)C(=O)c1cc(-c2ccccc2)nc2ccc(C)cc12 was read as NPYLR7 agonist 0 and NPYLR7 agonist max-min -4.
C#CCn1c(=NC(=O)CN2C(=O)CCC2=O)sc2cccc(OCC)c21 was read as NPYLR7 agonist 0 and NPYLR7 agonist max-min 3.
`O=C(c1cccc(OC(F)F)c1)N1CCOC(c2ccccc2)C1` (configuration not stated) gave NPYLR7 agonist 3 and NPYLR7 agonist max-min 14.
For CN(c1ccccc1)P(=O)(c1ccccc1)c1ccccc1 the results were NPYLR7 agonist -3 and NPYLR7 agonist max-min -4.
Screening Cc1cccc(-n2nc3c(c2NC(=O)c2cccc(C(F)(F)F)c2)CS(=O)C3)c1C (configuration not stated) returned NPYLR7 agonist 3 and NPYLR7 agonist max-min 1.
CN(Cc1cn[nH]c1C(=O)O)Cc1n[nH]c2c1CCCCC2 was read as NPYLR7 agonist -6 and NPYLR7 agonist max-min -6.
CC1(C(=O)Nc2cccc3ccccc23)CCN1C(=O)C1(c2ccccc2)CCCC1 (configuration not stated) was read as NPYLR7 agonist 1 and NPYLR7 agonist max-min 0.
For CC(=O)Nc1ccc(Nc2ncnc(N)c2[N+](=O)[O-])cc1 the results were NPYLR7 agonist 0 and NPYLR7 agonist max-min -5.
COc1cccc(CNC(=O)CCc2nc3sc4c(c3c(=O)[nH]2)CCCC4)c1 was read as NPYLR7 agonist 9 and NPYLR7 agonist max-min 14.
CC(C)(C)OC(=O)NCCN1CCN(c2nccs2)CC1 was read as NPYLR7 agonist 4 and NPYLR7 agonist max-min 1.
Cc1nnc(C2CCCN(C(=O)NC(C)(C)C)C2)s1 (configuration not stated) was read as NPYLR7 agonist -4 and NPYLR7 agonist max-min 1.
For CN(C)c1ccc(C=C2SC(=S)NC2=O)cc1 the results were NPYLR7 agonist 4 and NPYLR7 agonist max-min 1.
`Cc1ccccc1CN1CCC(Cn2ccc3[nH]c(=O)c(C#N)cc3c2=O)C1` (configuration not stated) gave NPYLR7 agonist 2 and NPYLR7 agonist max-min 2.
`COc1ccc(Sc2ccc(NC(=O)NCCO)cc2)cc1` gave NPYLR7 agonist 18 and NPYLR7 agonist max-min 7.
For Cc1ccc(C)c(Cn2cnc3ccccc32)c1 the results were NPYLR7 agonist -3 and NPYLR7 agonist max-min -5.
Screening Cc1cc2cc(CNC(=O)NC3CC(=O)N(c4ccc5c(c4)OCCO5)C3)ccc2[nH]1 (configuration not stated) returned NPYLR7 agonist 2 and NPYLR7 agonist max-min 0.
For CCOC(=O)CCC(=O)Nc1c(-c2ccc(OC)c(OC)c2)nc2ccc(C)cn12 the results were NPYLR7 agonist -5 and NPYLR7 agonist max-min 0.
For Cc1cc(C)n(Cc2noc(-c3ccc(Cl)cc3)n2)n1 the results were NPYLR7 agonist 6 and NPYLR7 agonist max-min 3.
`N#Cc1c(NC(=O)C2CC(Cl)=CCC2C(=O)O)sc2c1CCCCC2` (configuration not stated) gave NPYLR7 agonist 12 and NPYLR7 agonist max-min 6.
For O=S(=O)(c1ccc(NC(=S)NN=C(C2CC2)C2CC2)cc1)N1CCOCC1 the results were NPYLR7 agonist 8 and NPYLR7 agonist max-min 7.
Screening CN(C)CCn1c2c(c(SCC(=O)N3CCCc4ccccc43)nc1=O)CCC2 returned NPYLR7 agonist -2 and NPYLR7 agonist max-min -6.
`COc1ccc(CN(CCc2c[nH]c3ccccc23)C(=O)CN(C(=O)c2cccc([N+](=O)[O-])c2)C2CC2)cc1OC` gave NPYLR7 agonist 0 and NPYLR7 agonist max-min 3.
CN(Cc1ccco1)C(=O)c1sc2cc(F)ccc2c1Cl was read as NPYLR7 agonist 6 and NPYLR7 agonist max-min 1.
Screening CCOc1ccc(/C(CC)=N/NC(=O)c2cc(C)[nH]n2)cc1 returned NPYLR7 agonist 4 and NPYLR7 agonist max-min 8.
For Nc1nnc(SCC(=O)NCCC2COc3ccccc3O2)s1 (configuration not stated) the results were NPYLR7 agonist -4 and NPYLR7 agonist max-min 5.
Screening CCOC(=O)N(C)c1c(CC)nc2c(OCc3ccc(C(F)(F)F)cc3)cccn12 returned NPYLR7 agonist 7 and NPYLR7 agonist max-min -9.
`CC(C)c1noc(CCCC(=O)C(C#N)c2nc3ccccc3[nH]2)n1` (configuration not stated) gave NPYLR7 agonist -7 and NPYLR7 agonist max-min -7.
Screening Cc1ccc(CN2CCC3(CC2)C(=O)N(C(C)C)C(=O)N3CCC(C)C)c(C)c1 returned NPYLR7 agonist -9 and NPYLR7 agonist max-min -11.
For O=C(CSc1nc(=O)n(Cc2ccncc2)c2c1CCCC2)NCC1CCCO1 (configuration not stated) the results were NPYLR7 agonist 1 and NPYLR7 agonist max-min -1.
For CCOC(=O)C1CCCN(C(=O)CCc2nnc(-c3ccc(OC)c(OC)c3)[nH]c2=O)C1 (configuration not stated) the results were NPYLR7 agonist 6 and NPYLR7 agonist max-min 5.
`CCOc1c(CC)cnc2c1c(=O)n(CC(=O)Nc1cc(C)ccc1C)c(=O)n2C` gave NPYLR7 agonist -3 and NPYLR7 agonist max-min -5.
Screening O=C(NCC1CCCO1)C1COC2(CCN(C(=O)c3cccs3)CC2)N1C(=O)c1ccc(F)cc1 (configuration not stated) returned NPYLR7 agonist -8 and NPYLR7 agonist max-min 8.
Screening CCOC(=O)C1(CCOc2ccccc2)CCN(C(=O)C#Cc2ccccc2)CC1 returned NPYLR7 agonist 5 and NPYLR7 agonist max-min 0.
For O=C(O)c1cccc(Cn2ccsc2=NC(=O)c2ccccc2F)c1 the results were NPYLR7 agonist 23 and NPYLR7 agonist max-min 15.
`COCC1(C(=O)N(C)CCc2scnc2C)CCC1` gave NPYLR7 agonist -2 and NPYLR7 agonist max-min -4.
Screening Cc1ncsc1CCCNC(=O)CC(=O)Nc1cccc(Cl)c1C returned NPYLR7 agonist -4 and NPYLR7 agonist max-min -6.
For NC(=O)c1cccc(NC(=O)c2ccc(S(=O)(=O)C(F)(F)F)cc2)c1 the results were NPYLR7 agonist 3 and NPYLR7 agonist max-min -1.
Cc1ccc(-n2nc(-c3ccccc3)c3c2N(CC(=O)NCC2CCCO2)C(=O)CSC3c2ccc(F)cc2F)c(C)c1 (configuration not stated) was read as NPYLR7 agonist 20 and NPYLR7 agonist max-min 22.
For CC(=O)c1sc(-c2ccccc2)nc1C1CC1 the results were NPYLR7 agonist 6 and NPYLR7 agonist max-min 4.
For Cc1nc(-c2ccco2)ccc1C(=O)NC1CCC(=O)N(C)C1 (configuration not stated) the results were NPYLR7 agonist 1 and NPYLR7 agonist max-min 2.
CCOc1ccccc1CN1CCC2(CC1)C(=O)N(Cc1ccccn1)C(=O)N2Cc1ccccc1 was read as NPYLR7 agonist 15 and NPYLR7 agonist max-min -1.
Screening O=C(Nc1ccc(F)cc1Cl)c1csc(COc2ccc(F)cc2)n1 returned NPYLR7 agonist 12 and NPYLR7 agonist max-min 5.
For Cn1ncc2c1CC/C(=C\c1cccc(C(F)(F)F)c1)C2=O the results were NPYLR7 agonist 2 and NPYLR7 agonist max-min 1.
Cc1ccc(-c2nc(C=Nc3ccc(Br)cc3)c(O)o2)cc1 was read as NPYLR7 agonist -4 and NPYLR7 agonist max-min -12.
For Cn1c(NNC(=O)c2ccc(C(C)(C)C)cc2)cc(=O)n(C)c1=O the results were NPYLR7 agonist 4 and NPYLR7 agonist max-min 5.
Screening CC1=NOC2(C1)/C(=N\O)CCC/C2=N\O (configuration not stated) returned NPYLR7 agonist 11 and NPYLR7 agonist max-min 6.
O=c1cc(CN2CCOCC2)nc2ccc(Br)cn12 was read as NPYLR7 agonist -2 and NPYLR7 agonist max-min -3.

Reprinted from the part before: 7 entries, followed by the next part.
CCOc1ccccc1CN1CCC2(CC1)C(=O)N(Cc1ccccn1)C(=O)N2Cc1ccccc1 was read as NPYLR7 agonist 15 and NPYLR7 agonist max-min -1.
Screening O=C(Nc1ccc(F)cc1Cl)c1csc(COc2ccc(F)cc2)n1 returned NPYLR7 agonist 12 and NPYLR7 agonist max-min 5.
For Cn1ncc2c1CC/C(=C\c1cccc(C(F)(F)F)c1)C2=O the results were NPYLR7 agonist 2 and NPYLR7 agonist max-min 1.
Cc1ccc(-c2nc(C=Nc3ccc(Br)cc3)c(O)o2)cc1 was read as NPYLR7 agonist -4 and NPYLR7 agonist max-min -12.
For Cn1c(NNC(=O)c2ccc(C(C)(C)C)cc2)cc(=O)n(C)c1=O the results were NPYLR7 agonist 4 and NPYLR7 agonist max-min 5.
Screening CC1=NOC2(C1)/C(=N\O)CCC/C2=N\O (configuration not stated) returned NPYLR7 agonist 11 and NPYLR7 agonist max-min 6.
O=c1cc(CN2CCOCC2)nc2ccc(Br)cn12 was read as NPYLR7 agonist -2 and NPYLR7 agonist max-min -3.
For CC(NC(=O)C1CCCN(C(=O)N2CCCC2)C1)c1cc2ccccc2o1 (configuration not stated) the results were NPYLR7 agonist 3 and NPYLR7 agonist max-min 0.
Screening COc1ccc(OC)c2sc(N(CC3CCCO3)C(=O)c3cc(C)n(C)n3)nc12 (configuration not stated) returned NPYLR7 agonist 5 and NPYLR7 agonist max-min 4.
`Cc1cc(N2CCN(c3cccc(C(F)(F)F)c3)CC2)nc(SCc2ccc(C(=O)NC3CC3)o2)n1` gave NPYLR7 agonist 9 and NPYLR7 agonist max-min 13.
COC(=O)c1ccccc1NCN1C(=O)c2ccc(Br)cc2C1=O was read as NPYLR7 agonist -3 and NPYLR7 agonist max-min -4.
For O=C1/C(=C/c2ccc(-c3cc(Cl)ccc3Cl)o2)C=C(c2ccccc2)N1c1cccnc1 the results were NPYLR7 agonist 2 and NPYLR7 agonist max-min -10.
Screening COCCN(Cc1ccc(OC)c(OS(=O)(=O)c2ccc(NC(C)=O)cc2)c1)C(=O)c1ccco1 returned NPYLR7 agonist 25 and NPYLR7 agonist max-min 29.
COC(=O)C1CC(O)CN1 (configuration not stated) was read as NPYLR7 agonist 18 and NPYLR7 agonist max-min 9.
`CCOc1ccccc1CS(=O)(=O)Cc1nc(C)c(C)o1` gave NPYLR7 agonist 3 and NPYLR7 agonist max-min -7.
For CNCC(=O)N1CCN(Cc2cccc(OC)c2)C(=O)C1 the results were NPYLR7 agonist 12 and NPYLR7 agonist max-min 6.
For O=C1c2ccccc2C(=O)N1CNc1cccc(F)c1 the results were NPYLR7 agonist 6&0 and NPYLR7 agonist max-min 8&6.

A draw from above in order of formula weight, largest number first.
`Cc1cc(N2CCN(c3cccc(C(F)(F)F)c3)CC2)nc(SCc2ccc(C(=O)NC3CC3)o2)n1` gave NPYLR7 agonist 9 and NPYLR7 agonist max-min 13.
For O=C1/C(=C/c2ccc(-c3cc(Cl)ccc3Cl)o2)C=C(c2ccccc2)N1c1cccnc1 the results were NPYLR7 agonist 2 and NPYLR7 agonist max-min -10.
For CC(NC(=O)C1CCCN(C(=O)N2CCCC2)C1)c1cc2ccccc2o1 (configuration not stated) the results were NPYLR7 agonist 3 and NPYLR7 agonist max-min 0.

(more compounds)
For Cc1ccc(/C=C/C2=NC(=C/c3ccc(N(C)C)cc3)/C(=O)O2)cc1 the results were NPYLR7 agonist 0 and NPYLR7 agonist max-min -4.
Screening COCc1cccc(C(=O)NNC(=O)c2ccccc2Br)c1 returned NPYLR7 agonist -1 and NPYLR7 agonist max-min -2.
Screening CCOC(=O)C1CCN(C(=O)c2cc3n(n2)CCN(Cc2ccc(C(F)(F)F)cc2)C3=O)CC1 returned NPYLR7 agonist 19 and NPYLR7 agonist max-min 15.
CSCCC1NC2(C(=O)N(C)c3ccccc32)C2C(=O)N(C(C)C)C(=O)C12 (configuration not stated) was read as NPYLR7 agonist -1 and NPYLR7 agonist max-min 0.
Screening N#Cc1ccsc1NC(=O)CSc1nncs1 returned NPYLR7 agonist 7 and NPYLR7 agonist max-min 17.
For Cc1ccc(S(=O)(=O)N2CCCCC2C)cc1C(=O)NCC(c1ccccc1)N(C)C (configuration not stated) the results were NPYLR7 agonist 3 and NPYLR7 agonist max-min 2.
For CCC(C)c1cc(C(=O)N(C)c2ccccc2S(C)(=O)=O)on1 (configuration not stated) the results were NPYLR7 agonist 1 and NPYLR7 agonist max-min 1.
OCCC1CN(CC2=Cc3cc(Cl)ccc3OC2)CCN1C1CCCC1 (configuration not stated) was read as NPYLR7 agonist -3 and NPYLR7 agonist max-min -5.
`CN(CCc1ccccn1)c1ncccc1CNc1ncccc1C(F)(F)F` gave NPYLR7 agonist 25 and NPYLR7 agonist max-min 10.
O=C(NC(=S)Nc1ccccc1C(F)(F)F)c1ccco1 was read as NPYLR7 agonist -1 and NPYLR7 agonist max-min -4.
COc1cc(OC)nc(Nc2nc(C(N)COCc3ccccc3)cs2)n1 (configuration not stated) was read as NPYLR7 agonist -3 and NPYLR7 agonist max-min -5.
`CC(=O)N1CCc2cc(C(=O)NCCCn3ccc4ccccc43)ccc21` gave NPYLR7 agonist 0 and NPYLR7 agonist max-min -6.
CCC(C)C(=O)NC1CCN(c2ccccc2C(=O)NCc2ccc(-c3ccccc3)cc2)CC1 (configuration not stated) was read as NPYLR7 agonist 0 and NPYLR7 agonist max-min 0.
`Fc1cnc(N2CCN(Cc3ccc(-c4ccn[nH]4)o3)CC2)nc1` gave NPYLR7 agonist 0 and NPYLR7 agonist max-min -2.
For CCn1c(CC2CCN(C(=O)C[C@@H]3C[C@@H]4C=C[C@H]3C4)CC2)nn(C)c1=O the results were NPYLR7 agonist -2 and NPYLR7 agonist max-min 1.
`CNc1ncc(CN(C)C(=O)c2csc(C)n2)cn1` gave NPYLR7 agonist -1 and NPYLR7 agonist max-min -5.
`CCOc1ccc(C(C2Sc3nc(C)nn3C2=O)N2CCCCC2)cc1` (configuration not stated) gave NPYLR7 agonist 2 and NPYLR7 agonist max-min 0.
For CCOC(=O)c1sc2nc(C(C)Sc3nncs3)[nH]c(=O)c2c1C (configuration not stated) the results were NPYLR7 agonist 4 and NPYLR7 agonist max-min 5.
Cc1c(C(=O)N2CCC(Cc3ccccc3)CC2)cc(-c2ccc(Cl)cc2)n1-c1ccccc1F was read as NPYLR7 agonist 0 and NPYLR7 agonist max-min 13.

Screening results as filed in PubChem BioAssay.
